V. cholerae QS – Vibrio cholerae quorum sensing activators, luminescence (AID 686977). V. cholerae quorum sensing reporter, luminescence, 6 h; higher luminescence means a stronger effect; most inactives read 0. 9,400 tested, under 10 active. luminescence at 50 µM unless noted, or EC50 in µM where a hit was titrated;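 active = light above mean plus 3 SD and confirmed in a dose series; inconclusive = above that limit without a clear retest; inactive = below it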;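 note: raw light counts without normalisation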
An asterisk follows results filed as active; ? = inconclusive; [ ] = another dose, or the depositor's remark. This is a subset, so the mix of outcomes need not match the whole.

Molecule	V. cholerae QS
NS(=O)(=O)c1cc2c(cc1Cl)NC(CC1CCCC1)NS2(=O)=O (stereo unspecified)	0[10 µg/mL]
CC(=O)c1ccc2c(c1)N(CCCN1CCC(CCO)CC1)c1ccccc1S2	0[10 µg/mL]
CCOC(=O)C(=O)/C(C#N)=C/Nc1ccc(Cl)cc1	0
CCc1ccc(NC(=O)N(CCCN2CCOCC2)Cc2cccs2)cc1	0
CC(=O)N[C@@H](CC(=O)O)C(=O)O	40[10 µg/mL]
O=C(CCc1ccc(S(=O)(=O)NCCc2ccccc2)cc1)Nc1ccc2c(c1)OCO2	0
CCOC(=O)c1ccc(OCC(=O)c2ccc(O)cc2O)cc1	0
COc1ccc(/C=C2\CCCC3C2=NN(C(=O)c2scnc2C)C3c2ccc(OC)cc2)cc1 (stereo unspecified)	0
COc1ccc(Oc2nc(Oc3ccc(OC)cc3)nc(Oc3ccc(OC)cc3)n2)cc1	40
COc1ccc(-n2nc(C(=O)NCc3ccco3)c3c4ccccc4n(C)c3c2=O)cc1Cl	0
CC(C)Cc1cc(C(=O)N2CCN(c3ccc(F)cc3)CC2)no1	240
Cc1ccc(C2N(c3cccc(Cl)c3)C(=O)C3CCCN32)o1 (stereo unspecified)	0
CC1(C)S[C@@H]2[C@H](NC(=O)Cc3ccccc3)C(=O)N2[C@H]1C(=O)O	40[10 µg/mL]
COc1cccc(-c2csc(NC(=O)C3CC3)n2)c1	0
O=C1C=C2C=C[C@@H]3CC2(O1)[C@H]1CCCCN31	0[10 µg/mL]
COc1ccccc1-n1c(SCC(=O)N2CCCCC2)nc2cccnc21	40
COc1ccc([C@@H]2CC(=O)c3c(O)cc(O)cc3O2)cc1O	0[10 µg/mL]
CCOC(=O)CN1C(=O)C(=O)c2cccc(C)c21	40
Cc1ccc(-c2nnc(SCC(=O)N3CCN(c4ccccc4)CC3)o2)cc1	0
C[C@H]1CCC2(NC1)O[C@H]1C[C@H]3[C@@H]4CC[C@H]5C[C@@H](O[C@@H]6O[C@H](CO)[C@H](O[C@@H]7O[C@H](CO)[C@@H](O)[C@H](O[C@@H]8OC[C@@H](O)[C@H](O)[C@H]8O)[C@H]7O[C@@H]7O[C@H](CO)[C@@H](O)[C@H](O)[C@H]7O)[C@H](O)[C@H]6O)CC[C@]5(C)[C@H]4CC[C@]3(C)[C@H]1[C@@H]2C (stereo partly specified)	40[10 µg/mL]
O=c1cc(CN2CCN(c3ccccc3F)CC2)c2cc3c(cc2o1)CCCC3	0
O=C(Nc1ccccc1)c1ccccc1NC(=O)C(F)(F)F	0
COC(=O)c1cc(=O)nc2sc(-c3cccs3)nn12	0
CCSc1nnc(NC(=O)c2ccc3ccccc3n2)s1	0
COc1ccc(NC(=O)c2cc(-c3ccccc3OC)on2)cc1	40
c1cn(CCCNc2ncnc3nc[nH]c23)cn1	0
CCC(C)(C)n1nnnc1C(c1ccccc1)N1CCc2ccccc2C1 (stereo unspecified)	0
N[C@H]1C[C@@H]1c1ccccc1	0[10 µg/mL]
COc1cccc2cc(C(=O)N3CCC(C)CC3)c(=O)oc12	40
COc1ccc(NC(=O)CSc2nnc(Cc3cccn3C)n2-c2ccc(F)cc2)cc1OC	0
O=[N+]([O-])c1ccc(/C=N/Nc2nc(N3CCCC3)nc(N3CCCC3)n2)o1	0
CN1CCN(CCCNC(=O)c2cc3c(=O)n(C)c4ccccc4c3s2)CC1	40
COc1cc(OC)c(C2N(C)c3ccccc3N2C)cc1OC	0
CCCNC(=O)Cn1cccc1C(=O)c1ccccc1	0
CC1CSc2nnc(CCc3ccccc3)n21 (stereo unspecified)	0
COc1ccc(C(=O)C(CO)Oc2ccccc2OC)cc1OC (stereo unspecified)	0
COc1cc(C2C3C(=O)N(c4ccc(F)cc4)C(=O)C3ON2c2ccccc2)ccc1O (stereo unspecified)	0
O=c1oc2ccccc2nc1/C=C(O)/C=C\c1ccccc1	800
CCCS(=O)(=O)N1CCN(Cc2ccccc2C(F)(F)F)CC1	40
CCCNC(C)(C)COC(=O)c1ccccc1	40[10 µg/mL]
CC(NC(=O)CCCN1C(=O)c2ccccc2C1=O)c1ccc2c(c1)CCCC2 (stereo unspecified)	40
CCN1C(=O)c2ccccc2S(=O)(=O)c2ccc(C(=O)N3CCOCC3)cc21	?
Cc1ccccc1NC(=O)CN(C)S(=O)(=O)c1cccc2cccnc12	40
Fc1cc2nccnc2cc1N1CCSCC1	0
CC1=C(C(=O)Nc2ccccc2)C(c2ccc(C)o2)n2c(s/c(=C\c3ccco3)c2=O)=N1 (stereo unspecified)	0
O=C(NCc1ccc2c(c1)OCO2)c1cccc([N+](=O)[O-])c1	0
Cc1cc(C(=O)CSc2nnc(-c3ccc(F)cc3)o2)c(C)n1CC1COc2ccccc2O1 (stereo unspecified)	0
Cn1c(=O)c2c(nc(CN3CCOCC3)n2CCCO)n(C)c1=O	40

Grouped by structure, the compounds so far with a CF3 group
Molecule	V. cholerae QS
O=C(Nc1ccccc1)c1ccccc1NC(=O)C(F)(F)F	0
CCCS(=O)(=O)N1CCN(Cc2ccccc2C(F)(F)F)CC1	40

New compounds follow.
Molecule	V. cholerae QS
Cc1csc(SCCn2c(N3CCOCC3)nc3c2c(=O)[nH]c(=O)n3C)n1	40
Cc1ccc2c(c1)NC(=O)C(CC(=O)NCCCN1CCCCC1C)O2 (stereo unspecified)	0
CCCCc1ccc(NC(=O)CSCc2cc(=O)[nH][nH]2)cc1	0
COCCNc1cc(C)nc2c(-c3ccccc3OC)c(C)nn12	40
CCOC(=O)N1CCC(N2CCN(S(=O)(=O)c3ccc(NC(C)=O)cc3)CC2)CC1	0
CCOc1ccc(Cn2nnc(C(=O)NCCc3ccc(Cl)cc3)c2N)cc1	0
O=C(O)CCc1n[nH]c(=S)[nH]c1=O	0
Cc1ccc(-c2nc(CS(=O)CC(=O)N3CCN(c4ncccn4)CC3)c(C)o2)cc1 (stereo unspecified)	280
CCn1nc(C(=O)Nc2ccc(S(=O)(=O)Nc3nccs3)cc2)c2ccccc2c1=O	0
COc1cc(C)nc(NCc2ccccc2)n1	40
CCN1C(=O)OC2(CCCCC2)C1(C)O (stereo unspecified)	0
COc1ccc(N2CSC3=C(C#N)C(c4cc(OC)c(OC)cc4OC)CC(=O)N3C2)c(OC)c1 (stereo unspecified)	0
N#Cc1ccc2ccn(CC(=O)N3CCCc4ccccc43)c2c1	0
CCNC(=O)Cc1ccc(Br)cc1	0
OCc1nc2ccccc2n1CCCOc1ccccc1	0
Cc1ccc(-c2nn3c(C)nnc3s2)cc1NC(=O)c1ccc(Br)o1	0
COc1ccc(CNc2cc([N+](=O)[O-])ccc2OC)cc1	?
COc1ccc(NC2=NCCC(=O)N2Cc2cccs2)cc1	?
CCOC(=O)c1sc2nc(C)cc(C)c2c1NC(=O)c1ccco1	0
CCCCCCOc1ccc(CN2CCN(CC)CC2)cc1	40
O=C(CCS(=O)(=O)c1ccc(Br)s1)NCc1ccccc1	0
O=C(CSCCSCC(=O)c1ccco1)c1ccco1	0
CCOc1ccc(C2N(c3ccc(F)cc3)C(=O)C3CCCN32)cc1OC (stereo unspecified)	0
Cc1cccc(NC(=O)COc2ccc3oc4c(c3c2)CCCC4)n1	0
CCn1c2ccccc2c2cc(Nc3cc(C)nc4ncnn34)ccc21	0
Cc1cccc(NC(=O)Cn2nnc(-c3ccc(CN4CCCC4)cc3)n2)c1C	40
CN(C)S(=O)(=O)c1ccc2c(c1)c(=O)c(C(=O)NCCCN1CCCCCC1)cn2C	40
Cc1occc1-c1nnc(SCC(=O)Nc2nc(C(C)(C)C)cs2)o1	0
COc1cc2c(cc1O)C[C@H]1c3c(cc(O)c(OC)c3-2)CCN1C	?
CCN(CC)CCN(C)Cc1ccc(Br)cc1	0
Cn1c(=O)oc2cc(S(=O)(=O)NCCC(=O)NCCc3ccc(Cl)cc3)ccc21	0
O=C(COc1ccccc1CNCc1ccccc1)Nc1ccccc1	40
O=C(Cc1cc(=O)[nH]c(=O)[nH]1)NCC1CCCO1 (stereo unspecified)	160
COc1ccc(C2C(C(=O)Nc3ccccn3)=C(C)Nc3ncnn32)c(OC)c1 (stereo unspecified)	0
CC(C)(C)NCC(O)c1ccc(O)c(CO)c1 (stereo unspecified)	40[10 µg/mL]
Cc1csc2nc(CNC(=O)C3CC=CCC3C(=O)O)cn12 (stereo unspecified)	0

Reprinted from the part before: three entries, followed by the next part.
Molecule	V. cholerae QS
COc1ccc(C2C(C(=O)Nc3ccccn3)=C(C)Nc3ncnn32)c(OC)c1 (stereo unspecified)	0
CC(C)(C)NCC(O)c1ccc(O)c(CO)c1 (stereo unspecified)	40[10 µg/mL]
Cc1csc2nc(CNC(=O)C3CC=CCC3C(=O)O)cn12 (stereo unspecified)	0
COC(=O)/C=c1\sc2ncnn2c1=O	0
C[C@]12CC[C@H](O)C[C@H]1CC[C@@H]1[C@@H]2C[C@@H](O)[C@]2(C)[C@@H](C3=CC(=O)OC3)CC[C@]12O	40[10 µg/mL]
Cc1ccc(S(=O)(=O)N=S(CC2CC2(Cl)Cl)CC2CC2(Cl)Cl)cc1 (stereo unspecified)	0
CCCCOc1ccc(-c2ncc(Cl)cn2)cc1	0
CCC(C)NC(=O)C1CCN(S(=O)(=O)c2cccc3cccnc23)CC1 (stereo unspecified)	?
O=C(Cn1cnc2c(nnn2Cc2ccccc2)c1=O)NCC1CCCO1 (stereo unspecified)	0
O=C(CCCn1c(=O)[nH]c2cc(Cl)ccc2c1=O)NC1CCCCCC1	0
Cc1ccc(NC(=O)N(CCCN2CCOCC2)Cc2cccnc2)cc1C	0
Cc1ccc(SC(C)C(=O)Nc2cccc(N(C)S(C)(=O)=O)c2)cc1 (stereo unspecified)	80
N#Cc1ccccc1Sc1ccccc1C(=O)N1CCOCC1	40
CCOC(=O)N=S(=O)(Oc1ccc([N+](=O)[O-])cc1)c1ccccc1 (stereo unspecified)	0
Nc1nnc(N2CCc3ccccc32)s1	0

Looked up above.
N#Cc1ccccc1Sc1ccccc1C(=O)N1CCOCC1 in V. cholerae QS → 40
Cc1ccc(SC(C)C(=O)Nc2cccc(N(C)S(C)(=O)=O)c2)cc1 (stereo unspecified) in V. cholerae QS → 80
O=C(Cn1cnc2c(nnn2Cc2ccccc2)c1=O)NCC1CCCO1 (stereo unspecified) in V. cholerae QS → 0
O=C(CCCn1c(=O)[nH]c2cc(Cl)ccc2c1=O)NC1CCCCCC1 in V. cholerae QS → 0
CCOC(=O)N=S(=O)(Oc1ccc([N+](=O)[O-])cc1)c1ccccc1 (stereo unspecified) in V. cholerae QS → 0
COC(=O)/C=c1\sc2ncnn2c1=O in V. cholerae QS → 0

(further entries)
Molecule	V. cholerae QS
CCC(C)C(NC(=O)C1CCC(C)CC1)C(=O)NC(C(=O)OC)C(C)C (stereo unspecified)	0
COCCn1c(SCc2nnc(-c3ccccc3)o2)nc2sc3c(c2c1=O)CCC3	0
Cc1ccc(C(=O)c2ccc(CC(=O)O)n2C)cc1	0[10 µg/mL]
Cc1cc(C)cc(-n2c(C)cc(C(=O)CSc3nnnn3C)c2C)c1	0
CC(=O)N[C@@H](CC(C)C)C(=O)O	0[10 µg/mL]
CCS(=O)(=O)N1CCN(S(=O)(=O)c2ccccc2)CC1	40
COc1ccc(NC(=O)CC2SC(=Nc3ccccc3)NC2=O)c(OC)c1 (stereo unspecified)	40
COc1ccc(NC(=O)/C(Cl)=C(/Cl)S(=O)Cc2ccc(C)cc2)cn1 (stereo unspecified)	0
O=C(O)CCC(=O)N1CCc2cc(S(=O)(=O)N3CC=C(c4ccccc4)CC3)ccc21	0
CCOc1cc(CO)c(Br)cc1OCC(=O)O	40
CC(=O)c1cccc(NC(=O)Cn2cc3c(n2)CCCC3)c1	40
COC(=O)c1ccc(OCC(O)Cn2nnc3ccccc32)cc1 (stereo unspecified)	40
CC1CCc2c(C(=O)Oc3cccc(-n4cnnn4)c3)csc2C1 (stereo unspecified)	0
Cc1nnc(NC(=O)CSc2nnc(Cc3cccn3C)n2CCc2ccccc2)s1	0
CCCCCn1c(C(Cc2ccccc2)NC(C)=O)nc2ccccc21 (stereo unspecified)	0
Cc1ccccc1Sc1ncnc2onc(C)c12	200
CC(C)Oc1ccc(C(=O)O)c(C(=O)O)c1	40
O=C1CC(N2CCN(Cc3ccc4c(c3)OCO4)CC2)C(=O)N1c1cccc(Cl)c1 (stereo unspecified)	?
CS(=O)(=O)N1CCCC(C(=O)NCCCN2CCc3ccccc3C2)C1 (stereo unspecified)	0
CCOC(=O)c1c(NCC2CCCO2)c2ccccc2[nH]c1=O (stereo unspecified)	0
COC(=O)[C@@H](NC(=O)NCc1ccccc1F)C(C)C	0
CC[C@H](CO)NCCN[C@H](CC)CO	0[10 µg/mL]
CCS(=O)(=O)Nc1cccc(C2=NN(S(=O)(=O)c3ccccc3)C(c3cccs3)C2)c1 (stereo unspecified)	0
CCOC(=O)c1cnc(-c2cccc(OC)c2)[nH]c1=O	0
CC(=O)C1=C(C)NC(SCC(N)=O)=C(C#N)C1C (stereo unspecified)	40
CCOC(=O)c1c(-c2ccc(C)c(C)c2)csc1NC(=O)C1CC=CCC1C(=O)O (stereo unspecified)	0
CCOC(=O)N1CCC(NC(=O)CCS(=O)(=O)c2ccc3c(c2)CCN3C(C)=O)CC1	40
CCOC(=O)C1CCN(c2c(N(C)Cc3ccco3)c(=O)c2=O)CC1	40
O=C1c2ccccc2C(Nc2ccc3c(c2)OCCO3)N1c1ccc(Cl)cn1 (stereo unspecified)	40

Bioassay records as filed in PubChem BioAssay.
